Screens (PubChem BioAssay)
Cruzain inh Det = qHTS Assay for Promiscuous and Specific Inhibitors of Cruzain (with detergent). Potency, µM, inactives show max response, negative = inhibition, hits mostly inhibitors. Cruzipain (Trypanosoma cruzi), P25779. purified cruzain, Z-FR-AMC fluorescence, 0.01% Triton. 200,000 compounds, 0.43% hits; active = well fitted curve in the direction sought with a large enough effect; inconclusive = small, poorly fitted or top-dose-only effect, or another doubt; inactive = no such curve, though single readings can be large; an effect the other way counts as inactive or inconclusive;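 also: plate controls were neutral wells for no effect and buffer without enzyme for full effect; nearly all actives have a fitted effect of over 40% in size; top concentration of the series not given in the record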
Target sequence (P25779 123-467 limits assumed): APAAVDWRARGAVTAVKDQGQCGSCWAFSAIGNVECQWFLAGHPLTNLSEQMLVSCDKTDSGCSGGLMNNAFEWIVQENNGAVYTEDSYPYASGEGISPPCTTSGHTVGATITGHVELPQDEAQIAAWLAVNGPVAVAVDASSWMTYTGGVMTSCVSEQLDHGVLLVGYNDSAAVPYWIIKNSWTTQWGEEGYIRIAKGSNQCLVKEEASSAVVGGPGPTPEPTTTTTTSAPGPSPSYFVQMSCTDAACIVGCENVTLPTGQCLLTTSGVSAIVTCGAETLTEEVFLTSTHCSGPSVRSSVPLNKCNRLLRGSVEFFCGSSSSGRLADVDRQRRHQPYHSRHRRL
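Enzyme 1.5 nM, Z-FR-AMC 2 uM, NaOAc 100 mM pH 5.5, DTT 5 mM, Triton X-100 0.01%; 15 min RT compound preincubation; kinetic ex360/em450, 60 s delta.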
RE007 growth inh = qHTS Assay for Inhibitors of the HIV-1 protein Vpr; S. pombe RE007 Vpr strain, BacTiter-Glo ATP luminescence, 24 h; control for the full effect not named in the record; Potency, µM (top dose mostly 92.2 µM), inactives show top-dose activity change, negative = less growth; 360,000 compounds, 0.21% hits; active = well fitted falling curve with a large enough effect; inconclusive = small, poorly fitted or top-dose-only effect; inactive = no such curve, though single readings can be large or run the other way;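 also: % is scaled to controls: 0 for no effect and ±100 for the full control effect; nearly all actives have a fitted effect of over 50% in size; the assay follows cell death caused by Vpr and the record does not say whether a fall means rescue or toxicity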
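Fission yeast RE007 carrying one integrated HIV-1 vpr copy, seeded at OD 0.01 in PMG+AL medium with 23 nL pinned compound. Grown 24 h at 30 degrees; viability read by BacTiter-Glo luminescence after 5 min.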
2A StopGo = High Throughput Screening for Foot and Mouth Disease Virus Antivirals | human cells with a luciferase reporter of 2A StopGo recoding; control for the full effect not named in the record | Potency, µM (top dose mostly 57.9 µM), for inactives: at the top dose signal change, negative = less light | 410,000 compounds, 1.2% hits | AID 1159524, 2015; active = well fitted falling curve with a large enough effect; inconclusive = small, poorly fitted or top-dose-only effect; inactive = no such curve, though single readings can be large or run the other way; tested in HEK293T cells; also: % is scaled to controls: 0 for no effect and ±100 for the full control effect; nearly all actives have a fitted effect of over 45% in size; luciferase light after 4 h
Lassa entry inh = qHTS for Inhibitors of binding or entry into cells for Lassa Virus | Lassa virus pseudotype entry inhibition, cell reporter; control for the full effect not named in the record | Potency, µM (highest dose often 37.9 µM), inactives show top-dose activity change, negative = inhibition, usual class: inhibitors | 300,000 compounds, 1.2% hits; active means well fitted inhibition curve with a large enough effect; inconclusive means small, poorly fitted or top-dose-only effect, or effect the other way; inactive means flat fitted curve, though single readings scatter; tested in HEK293 cells; also: % is scaled to controls: 0 for no effect and ±100 for the full control effect; nearly all actives have a fitted effect of over 50% in size; luciferase read-out
Marburg entry inh = qHTS for inhibitors of binding or entry into cells for Marburg Virus; Marburg virus pseudotyped entry inhibition, cell reporter; control for the full effect not named in the record; about a third of the inactives were read at about 46 µM; Potency, µM (series often up to 37.8 µM), inactives show at the highest dose activity change, negative = inhibition, actives largely listed as inhibitors; 300,000 compounds, 1.8% hits; AID 540276, 2011; active = well fitted inhibition curve with a large enough effect; inconclusive = small, poorly fitted or top-dose-only effect, or effect the other way; inactive = flat fitted curve, though single readings scatter; tested in HEK293 cells; about a fifth of its hits are not listed in these tables; also: % is scaled to controls: 0 for no effect and ±100 for the full control effect; luciferase read-out
Cruzain inh noDet = qHTS Assay for Promiscuous and Specific Inhibitors of Cruzain (without detergent); AID 1476, 2009; Cruzipain (Trypanosoma cruzi), P25779; 200,000 compounds, 2.3% hits; purified cruzain, Z-FR-AMC fluorescence, no detergent; Potency, µM, for inactives: max response, negative = inhibition, actives largely listed as inhibitors; active = well fitted curve in the direction sought with a large enough effect; inconclusive = small, poorly fitted or top-dose-only effect, or another doubt; inactive = no such curve, though single readings can be large; an effect the other way counts as inactive or inconclusive;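 also: plate controls were enzyme without inhibitor for no effect and buffer without enzyme for full effect; nearly all actives have a fitted effect of over 40% in size; top concentration of the series not given in the record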
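Purified cruzain at 1.5 nM, pre-incubated 15 min with compound at room temperature in 100 mM sodium acetate pH 5.5, 5 mM DTT, 0.00005% Triton X-100. Reaction started with 2 uM Z-FR-AMC; AMC fluorescence increase over 60 s gives rate.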
NS1 function inh = qHTS Assay for Inhibitors of Influenza NS1 Protein Function; S. cerevisiae slowed by influenza A NS1, growth recovery by OD600; Potency, µM (top dose mostly 46.1 µM), without a hit: top-dose activity, positive = more growth; 270,000 compounds, 0.4% hits; AID 2326, 2010; also: actives are rising curves; nearly all actives have a fitted effect of over 50% in size
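In this qHTS, NS1 from influenza A is expressed in budding yeast, where it slows growth. Cells are switched from glucose to 2% galactose medium (pH 6.0, -URA), treated with compound, and growth recovery is read at OD600.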
SARS PLP yeast = qHTS of Yeast-based Assay for SARS-CoV PLP; S. cerevisiae expressing SARS-CoV PLpro, growth rescue; control for the full effect not named in the record; Potency, µM (top dose mostly 32.9 µM), for inactives: top-dose activity, positive = growth rescue; 330,000 compounds, 0.19% hits; also: 0% is about no effect; nearly all actives have a fitted effect of over 55% in size; growth read by luminescence after 48 h
Numbers without * were called inactive; ? = inconclusive; nt = not tested or not shown; & = joins results of further samples; [ ] = remark or other dose. Unless noted, calls follow the shape of the dose curve; as a rule, active means well fitted rising curve with a large enough effect; inconclusive means small, poorly fitted or top-dose-only effect; inactive means no such curve, though single readings can be large or run the other way. Potency is read from the fitted curve at half-maximal effect.

SMILES	Cruzain inh Det	RE007 growth inh	2A StopGo	Lassa entry inh	Marburg entry inh	Cruzain inh noDet	NS1 function inh	SARS PLP yeast
C[N+](C)(N)CCOC(=O)C(O)(c1ccccc1)C1CCCCC1 (stereo not drawn)	nt	13%	-5%	16%	3%	nt	nt	nt
Cc1cccc(NC(=O)c2cc[n+]([O-])cc2)c1C	nt	-10%	0%	21%[46.1 µM]	-10%[46.1 µM]	nt	1%	0%
C/C(=N/OCC(=O)Nc1ccc(C)cc1C)c1cccs1	2.1%	-13%	-18%	-2%	8%	-3%	-78%	-7%
CC1CCC/C(=C\Nc2ccccc2C(=O)O)C1=O (stereo not drawn)	-3.1%	-7%	27%	10%	28%	-12%	-34%	13%
CC(C)(C)NC(=O)C(c1ccc(OCC(N)=O)cc1)N(C(=O)c1cccnc1)C1CC1 (stereo not drawn)	0.5%	14%	-9%	-15%	-3%	-5%	6%	-3%
COC(=O)Cc1ccc(N(Cc2ccccc2F)S(=O)(=O)c2ccc(C)cc2)cc1	-5.3%	-19%	-14%	?	?	?	-46%	-57%
COc1ccccc1OCc1ccc(C(=O)OCC2CCCO2)o1 (stereo not drawn)	-1.1%	0%	7%	10%	2%	-4%	-9%	-2%
Cn1c(N)c(C(=O)COC(=O)/C=C/c2ccccc2F)c(=O)n(C)c1=O	nt	-5%	-13%	-13%	4%	nt	nt	2%
CCOC(=O)CSC(=S)NC(=O)c1ccc(OC)cc1	-9.3%	?	-16%	5%	-2%	0%	15%	-60%
Cc1cc(NC(=O)COC(=O)C2CC(=O)N(c3ccccc3)C2)no1 (stereo not drawn)	nt	-8%	51%[activator]	26%[46.1 µM]	0%[46.1 µM]	nt	-1%	4%
Cc1ccc(CNC(=O)CN(CCc2ccccc2)S(C)(=O)=O)cc1	nt	12%	-4%	?	?	nt	-1%	-1%
CC(=O)Nc1ccc(N=c2cc([N+](=O)[O-])cc(Cl)n2O)cc1	nt	6%	0%	?	?	nt	4%	-1%
NC(=O)C1CCN(c2ccc(C(F)(F)F)cc2[N+](=O)[O-])CC1	-2.0%	-11%	4%	-18%	-22%	4%	-14%	-3%
CCOC(=O)c1c(NC(=O)C(C)S(=O)(=O)c2cn(CC)c3ccccc23)sc2c1CCCC2 (stereo not drawn)	-1.8%	14%	?	-5%	17%	-18%	9%	-3%
CSc1nc(NC(C)(C)C)nc(Oc2ccc(=O)n(C)n2)n1	4.9%	16%	22%	18%	?	4%	-2%	-2%

Shown field by field: entries from further up
> NC(=O)C1CCN(c2ccc(C(F)(F)F)cc2[N+](=O)[O-])CC1
  Cruzain inh Det: -2.0%
  RE007 growth inh: -11%
  2A StopGo: 4%
  Lassa entry inh: -18%
  Marburg entry inh: -22%
  Cruzain inh noDet: 4%
  NS1 function inh: -14%
  SARS PLP yeast: -3%

> CCOC(=O)c1c(NC(=O)C(C)S(=O)(=O)c2cn(CC)c3ccccc23)sc2c1CCCC2 (stereo not drawn)
  Cruzain inh Det: -1.8%
  RE007 growth inh: 14%
  2A StopGo: ?
  Lassa entry inh: -5%
  Marburg entry inh: 17%
  Cruzain inh noDet: -18%
  NS1 function inh: 9%
  SARS PLP yeast: -3%

> COC(=O)Cc1ccc(N(Cc2ccccc2F)S(=O)(=O)c2ccc(C)cc2)cc1
  Cruzain inh Det: -5.3%
  RE007 growth inh: -19%
  2A StopGo: -14%
  Lassa entry inh: ?
  Marburg entry inh: ?
  Cruzain inh noDet: ?
  NS1 function inh: -46%
  SARS PLP yeast: -57%

> C[N+](C)(N)CCOC(=O)C(O)(c1ccccc1)C1CCCCC1 (stereo not drawn)
  Cruzain inh Det: nt
  RE007 growth inh: 13%
  2A StopGo: -5%
  Lassa entry inh: 16%
  Marburg entry inh: 3%
  Cruzain inh noDet: nt
  NS1 function inh: nt
  SARS PLP yeast: nt

More results:
SMILES	Cruzain inh Det	RE007 growth inh	2A StopGo	Lassa entry inh	Marburg entry inh	Cruzain inh noDet	NS1 function inh	SARS PLP yeast
Cc1c(C(=O)OCC2CCCCC2)[nH]c2c1C(=O)CC(c1ccc(F)cc1)C2 (stereo not drawn)	1.8%	nt	-21%	-12%[46.1 µM]	-19%[46.1 µM]	-8%	nt	nt
COc1ccc(-c2nnc3sc(COc4ccccc4)nn23)cc1	-3.4%	6%	15%	-6%	16%&16%	-12%	-52%	-1%
CN1CCN(CC(=O)Nc2nc3c(s2)CCCC3)CC1	nt	-4%	-12%	nt	nt	nt	0%	-2%
COC(=O)C(C)NC(=S)N1CCN(c2c(F)cc3c(=O)c(C(=O)O)cn(C4CC4)c3c2OC)CC1C (stereo not drawn)	nt	-6%	0%	nt	0%	nt	7%	0%
Cc1ccc(NC(=O)[C@@H]2CCCN2S(=O)(=O)c2ccccc2F)cc1S(=O)(=O)N1CCOCC1	-0.9%	5%	7%	?	?	23%	7%	17%
Cc1cc(Br)ccc1SCC(=O)OCC(=O)NC(C)c1ccccc1 (stereo not drawn)	-6.2%	1%	-13%	-6%	9%	-4%	-37%	9%
CCC(=O)Nc1ccc(C(=O)NNC(=O)COc2cc(C)ccc2C)cc1	-4.2%	5%	-12%	11%	15%	-3%	0%	-3%
COc1ccc(OC)c(S(=O)(=O)NCCC(C)C)c1	nt	2%	145%[activator]	2%	4%[46.1 µM]	nt	nt	-1%
COc1cc(CNCc2ccccc2)c(Br)cc1OC1CCCC1	nt	-20%	?	?	?	nt	-5%	-1%
Cc1cccc(NC(=O)C(CCC(N)=O)NC(=O)OCc2ccccc2)c1 (stereo not drawn)	nt	7%	-13%	nt	-14%[46.1 µM]	nt	8%	2%
CC(C)(C)NC(=O)C(c1ccncc1)N(C(=O)CNC(=O)c1ccco1)c1ccc(F)cc1 (stereo not drawn)	nt	-2%	5%	-1%	16%[46.1 µM]	nt	-1%	0%
C/C(=N/NS(=O)(=O)c1cccc([N+](=O)[O-])c1)c1ccc2c(c1)OCO2	nt	12%	6%	17%[46.1 µM]	-4%[46.1 µM]	nt	-2%	2%
CC(=O)C1C(=O)C=C(c2cccs2)CC1c1ccccc1 (stereo not drawn)	nt	-13%	-24%	-10%	-1%[46.1 µM]	nt	nt	12%
CCOC(=O)c1ccc2nc(C(F)(F)F)[nH]c(=O)c2c1	-3.9%	7%	-13%	12%	4%	12%	-71%	0%
CN=Cc1sc2ccccc2c1O	-0.1%	-10%	nt	2%	8%	-5%	-31%	-21%
COc1ccc(C(CC(=O)Nc2cc([N+](=O)[O-])ccc2OC)c2ccccc2)cc1 (stereo not drawn)	-2.0%	nt	?	-9%	?	?	7%	-8%
CSc1snnc1-c1ccccc1	nt	-9%	14%	10%[46.1 µM]	?	nt	nt	2%
Cn1cccc1C(=O)NC(=O)CSc1cccc[n+]1[O-]	1.2%	0%	11%	7%	3%[46.1 µM]	-8%	-23%	2%
O=C(COc1coc(CN2CCc3ccccc3C2)cc1=O)N1CCOCC1	nt	-4%	-10%	-1%	3%	nt	nt	-1%
CC1CCCN(C(=O)c2ccc3nc[nH]c3c2)C1 (stereo not drawn)	2.7%	2%	3%	-5%	3%	5%	4%	-3%
COc1cc(C)ccc1OCCOc1cc(C)ccc1Cl	-0.7%	-6%	-11%	7%	?	20µM*	?	-11%
CCCSc1ncc(Cl)c(C(=O)Nc2c(C(=O)Nc3ccc(OC)cc3)oc3ccccc23)n1	0.4%	nt	-23%	11%[46.1 µM]	0%[46.1 µM]	-20%	nt	nt
CCOC(=O)CN1N=C(c2ccc(C)cc2)CCC1=O	nt	12%	6%	-8%	?	nt	2%	2%
CC(=O)Oc1cccc(NC(=O)c2ccc3c(c2)C(=O)N(CC(C)C)C3=O)c1	nt	-2%	8%	nt	nt	nt	-1%	1%
COc1ccc(NC(=O)CCS(=O)(=O)c2cc3c4c(c2)CCN4C(=O)CC3)cc1OC	-1.9%	nt	4%	30%[46.1 µM]	nt	0%	nt	nt
CCn1nnnc1SCC(=O)Nc1ccc(N(C)C)cc1	nt	-5%	29%	15%[46.1 µM]	?	nt	4%	-1%
O=C1CC(c2ccccc2)CC2=C1CN(C1CCCCC1)CN2 (stereo not drawn)	-4.1%	-18%	12%	-8%	-18%	-13%	-6%	-4%
CC(=NCC1CCCO1)c1c(O)n(Cc2ccccc2)c(=O)[nH]c1=O (stereo not drawn)	0.7%	0%	-8%	?	-5%	1%	0%	3%
NC(=O)Cn1c(=O)n(-c2ccc(F)c(Cl)c2)c(=O)c2sc3ccccc3c21	8.6%	nt	-1%	-4%[46.1 µM]	16%[46.1 µM]	4%	nt	nt
CC(C)N1CCC(=O)NC1=O	nt	-10%	-8%	29%[46.1 µM]	8%[46.1 µM]	nt	nt	nt
COCc1cc(=O)[nH]c(SCC(=O)c2ccccc2)n1	nt	5%	15%	?	-14%	nt	1%	-1%
O=C(Nc1nc2ccccc2[nH]1)c1ccc([N+](=O)[O-])cc1	nt	22%	25%	-23%	-27%[46.1 µM]	nt	nt	0%
O=C(CN1CCN(S(=O)(=O)c2ccccc2)CC1)Nc1ccc(Cl)c(Cl)c1	-4.9%	5%[3.69 µM]	0%	?	?	9%	-3%	-13%
COc1ccc(CCNC(=O)c2cnc3sc(N4CCCCCC4)nn3c2=O)cc1OC	-2.9%	nt	-18%	3%[46.1 µM]	nt	3%	nt	nt
